MgrA DNA FP – alters Staphylococcus aureus MgrA binding to DNA; AID 602314; fluorescence polarization; inhibition, %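 (about 10 µg/mL by stock and volumes)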; actives 0.13% (n = 84,000);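 active = above 50% in either of two replicates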;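 also: 0% = protein plus DNA without compound and 100% = DNA alone without protein; higher means less MgrA bound to DNA so lower polarization; one replicate is shown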
S aureus helic – blocks Staphylococcus aureus DNA helicase; purified S. aureus helicase, fluorescence unwinding assay; about half of the hits fall short of the stated cut; inhibition, %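 (tested at about 80 µM)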; actives 0.05% (n = 120,000); AID 485395;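 active = both duplicates at 50% or more, or one of them with a favoured structure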;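 also: 0% = mean of negative control wells and 100% = mean of positive control wells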
The depositor's hits bear a star; nt = no result given.

SMILES | MgrA DNA FP | S aureus helic
CCc1ccc(Oc2coc3cc(OC(=O)c4cccs4)ccc3c2=O)cc1 | 0.5 | 7
Clc1ccc(-n2ncc3c(N4CCCC4)ncnc32)cc1 | nt | 5
CC1(C)CC(=O)C(C=NCc2ccc(F)cc2)=C(O)C1 | 0.8 | 10
COCCNC(=O)c1cc(-c2ccncc2)nc2ccc(S(=O)(=O)N3CCOCC3)cc12 | nt | 2
COc1cccc2c1c(NS(=O)(=O)c1cc(Cl)sc1Cl)nn2C | -1.1 | nt
C/C(=N\OCC(=O)O)c1ccc(Br)s1 | nt | 12
CSc1ccccc1NC(=O)CN1CCCC1 | nt | -9
O=C(Cn1c(=S)[nH]c2ccccc21)c1ccc(-c2ccccc2)cc1 | -3.0 | -17
CSc1nn(-c2ccccc2)cc1-c1nc(-c2ccccc2)cs1 | -0.4 | nt
CCOC(=O)C1=NN(c2ccccc2)C(=O)C12CC(C)=C(C)CS2 (configuration not stated) | nt | 17
Cc1cc(C)cc(OCC(=O)NCCN2CCOCC2)c1 | -2.0 | -3
O=C(NC1CCCCCC1)c1cc2ccccc2c(=O)[nH]1 | nt | 0
CC1(C)C(c2ccccc2)=[N+]([O-])C2(CCCCC2=O)N1O (configuration not stated) | nt | 15
COc1cc2c(cc1OC)C(c1ccccc1)NCC2 (configuration not stated) | -1.6 | nt
Cc1onc(-c2ccccc2)c1C(=O)N1CCNCC1 | -1.6 | nt
CCOc1ccc(N2C(=O)NC(=O)/C(=C\c3ccc(O)c(OCC)c3)C2=O)cc1 | 8.1 | nt
O=C(NCCN1CCOCC1)c1cccc2c1OCCCO2 | nt | -11
O=C(COc1ccccc1)NCc1cccs1 | 1.2 | 0
Cc1cc(C)n(-c2nnc(C)n2NS(=O)(=O)c2ccc(F)cc2)n1 | nt | 6
Cc1ccc2nc(C)c(CN3CCN(C(=O)/C=C/c4ccc(C#N)cc4)CC3)n2c1 | nt | -9

Taken from above.
Value of `O=C(NCCN1CCOCC1)c1cccc2c1OCCCO2` under S aureus helic: -11
Value of `COc1cc2c(cc1OC)C(c1ccccc1)NCC2` (configuration not stated) under MgrA DNA FP: -1.6
Value of `CCOc1ccc(N2C(=O)NC(=O)/C(=C\c3ccc(O)c(OCC)c3)C2=O)cc1` under MgrA DNA FP: 8.1
Value of `O=C(COc1ccccc1)NCc1cccs1` under MgrA DNA FP: 1.2

New compounds follow:
SMILES | MgrA DNA FP | S aureus helic
Cc1ccc(C(=O)NCC(=O)OCc2c(F)cccc2Cl)s1 | 2.2 | 20
COc1ccc(C(NC(C)=O)c2ccc3cccnc3c2O)cc1 (configuration not stated) | nt | -5
CCCCn1c(CCCO)nc2ccccc21 | nt | 6
CCn1c(C(=O)N2CCCCC2)cc2sccc21 | nt | 4
CCOC(=O)c1sc(NC(=O)c2cccs2)cc1C | nt | -10
O=C(c1ccc2c(c1)N(Cc1ccccc1)CCS2)N1CCCCC1 | nt | 7
CC(SCc1n[nH]c(=O)[nH]1)C(=O)Nc1nccs1 (configuration not stated) | 0.2 | 6
Cc1cc(N2CCCC2)nc2ccc(NC(=S)NC(C)C)cc12 | -5.5 | 9
Cc1csc(-c2nonc2N)n1 | nt | 12
COc1cc(C2NC(=O)NC(C)=C2C(=O)OCC2CCCCC2)ccc1OCc1ccccc1 (configuration not stated) | -1.8 | nt
CCOc1ccc(NC(=O)Cc2ccccc2OC)cc1 | 0.3 | -4
O=C(Cc1cccs1)Nc1noc2ccccc12 | 4.3 | 9
CCCNC(=O)COc1ccc(Br)cc1C | 1.5 | 3
Cc1ccccc1OCC(=O)N1CCCc2ccccc21 | nt | -3
N#Cc1c(Cl)cccc1N1CCC(C(=O)N/C=N/O)CC1 | 0.3 | nt
Nc1ccccc1C(=O)NCc1cccnc1 | 0.3 | nt
CC(=Nc1ccccc1)Nc1ccccc1 | 0.6 | 5
CC(=O)NCCC(=O)Nc1ccc(OC(F)F)cc1 | nt | 7
Cc1ccc(-n2nnc(S(=O)(=O)c3ccc(C)cc3)c2N)cc1 | nt | -36
Cc1ccc(CNC(=O)c2cn(C)c3ccc(S(=O)(=O)N4CCCC4)cc3c2=O)cc1 | nt | -17
CCOC(=O)C1=C(C)NC(=S)NC1c1ccc(OCC(=O)N2CCCCC2)cc1 (configuration not stated) | 0.6 | 8
O=C(NCCN1C(=O)CSC1=O)c1ccccc1 | -1.7 | 3
CCN(CC)c1ccc(C(=O)OCC(=O)c2ccc(OC(F)F)cc2)cc1 | nt | -10
O=C(Oc1ccc2c(c1)OCO2)[C@@H]1CCCN1S(=O)(=O)c1ccc(Cl)cc1 | nt | 0
COc1cccc(CNC(=O)CSC)c1 | nt | 8
O=c1[nH]nc(SCc2cccc3ccccc23)c(=O)[nH]1 | 5.2 | -9
CC(C)(C)C(=O)CC(=O)Nc1ccc(Cl)c(N)c1 | 0.4 | 9
COC(=O)c1ccc(NC(=O)CNC2CCCCCC2)cc1 | nt | 7
CCc1ccc(OCCCC(=O)O)c(Br)c1 | -0.1 | 13
Cc1c(N2CCCC2)cc2c(c1N)C(C)(C)CC2(C)C | -1.0 | nt
Cc1cc2c(c(SCc3ccccc3Cl)n1)C(=O)OC2 | nt | 8
CCN(CC)Cc1cc(C(=O)O)c(-c2ccccc2)o1 | -4.9 | -3
Cc1cc(N=Cc2c(O)n(-c3ccc(C)c(C)c3)c(=O)c3ccccc23)no1 | nt | 4
O=C1CCCN2N=C(SCC(=O)N3CCC(Cc4ccccc4)CC3)SC2=N1 | nt | -8
CS(=O)(=O)c1nc(Oc2cccc(C(F)(F)F)c2)cc(Oc2cccc(C(F)(F)F)c2)n1 | -1.6 | 8
CN(C)S(=O)(=O)N1CCN(C(=O)c2ccco2)CC1 | nt | 7
N#CCSc1ncc(C(F)(F)F)cc1Cl | 0.3 | nt
FC(F)Oc1ccc(NC(=S)NC2CCCC2)cc1 | nt | -10
CC(C)CC(=O)N1CCN(c2ccc(F)cc2)CC1 | 1.0 | 4
O=C1c2ccccc2C(O)(c2ccccc2)N1C1CCCC1 (configuration not stated) | -0.9 | -3
CN1C(=S)N(C2CCCCC2)C(=O)/C1=C/c1ccc(-c2ccc(Br)cc2)o1 | nt | -117
CCCC(=O)N1c2ccccc2NC2=C(C(=O)CCC2)C1c1ccc(OC)c(OC)c1 (configuration not stated) | -1.2 | 9
Cc1cc(=O)oc2cc(NC(=O)C3COc4ccccc4O3)ccc12 (configuration not stated) | nt | -6
O=C(c1ccccc1)C1CCN(S(=O)(=O)c2cc(C(F)(F)F)cc(C(F)(F)F)c2)CC1 | nt | -9
O=C(CC1(O)C(=O)N(CCc2ccccc2)c2ccc(Cl)cc21)c1ccccc1 (configuration not stated) | 2.6 | 2
C=CCN(CC(=O)O)S(=O)(=O)c1ccccc1C(F)(F)F | nt | 8
CC1=C(C(=O)OCc2ccccc2)C2(C(=O)Nc3ccccc32)C(C(=O)OCc2ccccc2)=C(N)O1 (configuration not stated) | 0.8 | nt
C(#Cc1ccc(-c2ccn[nH]2)cc1)c1ccccc1 | -1.2 | nt
CCC(=O)NCCc1cc2cc(C)c(C)cc2[nH]c1=O | 0.1 | 8
Cc1ccc(C(=O)Oc2ccc3c4c(c(=O)oc3c2)CCCC4)cc1 | nt | -2
More records follow.
SMILES | MgrA DNA FP | S aureus helic
CC(SCC(=O)Nc1ccc(S(=O)(=O)N(C)C)cc1)C(=O)O (configuration not stated) | nt | 0
CCCc1cc(-c2[nH]ncc2-c2ccc3c(c2)OCCCO3)c(O)cc1O | nt | -1
Cc1ccc(O)c(C(CC(=O)NC2CCCCC2)c2ccccc2)c1 (configuration not stated) | nt | 2
Cc1c(NC(=O)CCCN2C(=O)c3cccc4cccc(c34)C2=O)c(=O)n(-c2ccccc2)n1C | 3.2 | nt
Cc1cc(C(=O)COc2ccc(Cl)cc2Br)c(C)n1C | nt | 6
CSc1ccccc1C(=O)c1ccccc1C(=O)O | -1.5 | nt
CSC(SC)=C(C#N)C(=O)c1ccccc1Cl | 29 | nt
COC(=O)c1c(-c2ccc(F)c(F)c2)cn2c1SCC2=O | nt | -10
CCN(C(=O)c1coc(=O)c2ccccc12)c1cc(OC)ccc1OC | 1.0 | 5
COc1ccc(CNC(=O)CSc2nc3cccnc3s2)cc1 | -0.2 | nt

Rewritten with values under each structure: four of the compounds above
Values run as follows: MgrA DNA FP	S aureus helic
Cc1c(N2CCCC2)cc2c(c1N)C(C)(C)CC2(C)C
  -1.0	nt
O=C(c1ccc2c(c1)N(Cc1ccccc1)CCS2)N1CCCCC1
  nt	7
CC(=O)NCCC(=O)Nc1ccc(OC(F)F)cc1
  nt	7
Cc1c(NC(=O)CCCN2C(=O)c3cccc4cccc(c34)C2=O)c(=O)n(-c2ccccc2)n1C
  3.2	nt

The main list resumes, starting 5 compounds before the break.
SMILES | MgrA DNA FP | S aureus helic
CSc1ccccc1C(=O)c1ccccc1C(=O)O | -1.5 | nt
CSC(SC)=C(C#N)C(=O)c1ccccc1Cl | 29 | nt
COC(=O)c1c(-c2ccc(F)c(F)c2)cn2c1SCC2=O | nt | -10
CCN(C(=O)c1coc(=O)c2ccccc12)c1cc(OC)ccc1OC | 1.0 | 5
COc1ccc(CNC(=O)CSc2nc3cccnc3s2)cc1 | -0.2 | nt
O=C(CCCC(=O)c1ccccc1)Nc1ccc(O)cc1 | 2.5 | -1
C=CCN(CC=C)S(=O)(=O)c1ccc(C(=O)N2CCOCC2)cc1 | nt | -19
O=C(Nc1ccc2c(c1)CS(=O)(=O)C2)c1cccs1 | -3.0 | nt
Cc1cc(=O)oc2cc(OC(C)C)c(Cl)cc12 | 0.5 | -11
COc1ccc(S(=O)(=O)N(C)c2ccnc(C(=O)N3CCc4ccccc43)c2)cc1 | nt | -31
Cn1c(=O)c2c(nc(Sc3nc4ccccc4n3CC(=O)NC3CCCCC3)n2C)n(C)c1=O | nt | -6
COc1ccc(-c2csc(N/N=C\c3ccc(O)cc3)n2)cc1 | nt | 7
Cc1cc(-c2ccccc2C(=O)NCc2ccccc2)on1 | 0.6 | 16
CCc1ccccc1Nc1nc(N)nc(CSc2nnc(-c3cccs3)n2CC2CCCO2)n1 (configuration not stated) | nt | 2
Cn1c(=O)c2c(nc3n(C4CC4)c(-c4ccccc4)cn23)n(C)c1=O | nt | 14
COc1ccccc1N1CCN(C(=O)C(OC(C)=O)c2ccccc2)CC1 (configuration not stated) | 2.2 | 9
Cn1c(SCC(=O)N2CCCCC2)nc2ccccc2c1=O | 0.8 | 6
O=C(Nc1ccccc1)c1snc2c(=O)[nH]cnc12 | 3.6 | 8
Cc1noc(C)c1S(=O)(=O)NCc1ccccn1 | -2.0 | nt
CC(=O)N1CCN(c2ccc(N)cc2)CC1 | 3.4 | -13
O=C(NC1CCCCC1NC(=O)c1cccs1)c1cccs1 (configuration not stated) | nt | -1
Cc1ccc(S(=O)(=O)c2nc(S(C)(=O)=O)sc2N2CCCC2)cc1 | 0.2 | 16
Cc1cc(C)c(C(=O)CSc2nnc(C)n2N)cc1C | nt | -14
CCCCNc1nc2ccccc2n1Cc1cccc(OC)c1 | nt | -9
COC(=O)c1cnn(-c2ccccc2)c1C(OC)OC | -0.4 | nt
COC(=O)c1ccccc1SN | nt | 10
CCN(CC)S(=O)(=O)c1ccc(C(=O)Nc2nnc(-c3ccc(S(C)(=O)=O)cc3)o2)cc1 | nt | 5
Nn1c(=S)[nH]c2cc(C(=O)O)ccc2c1=O | -1.1 | 0
CCOC(=O)c1c(NC(=O)c2ccc(Cl)s2)sc2c1CCN(C(C)=O)C2 | nt | -9
CC(C)n1c(SCC(=O)c2ccccc2)nc2cc(Cl)ccc21 | 0.0 | nt
COC(=O)c1ccccc1Oc1c(F)c(F)nc(N2CCCCC2)c1F | nt | -8
CCc1nn(CCCC(=O)N2CCN(c3cccc(C)c3C)CC2)c(=O)c2cc3occc3n12 | nt | -19
Cc1nn(C)c(C)c1/C=C/C(=O)N1CCN(Cc2cccc(Cl)c2)CC1 | nt | 6
O=c1[nH]c2ncccc2nc1-c1ccccc1 | 0.1 | 1
O=C(O)c1ccc(F)c2ccccc12 | -9.8 | nt
Cc1ccccc1S(=O)(=O)Nc1ccccc1 | nt | 14
Cc1cccc(Nc2cc(N3CCCCC3)ncn2)c1 | nt | -22
Cc1ccc2oc(-c3ccccc3)cc(=NCCN(C)C)c2c1 | 2.5 | 37
O=c1[nH]c(O)c(C=Nc2ccccc2)c(=O)[nH]1 | -0.6 | 8
COc1ccc(C2Nn3c(C)nnc3SC2C(=O)Nc2ccccc2C(F)(F)F)cc1 (configuration not stated) | nt | -23
Oc1cccc(Nc2nc(NCC3CCCO3)c3ccccc3n2)c1 (configuration not stated) | 4.4 | -2
COCc1cc(C)nc2sc3c(c12)NC1(CCCCC1)NC3=O | 0.2 | 0
Cc1ccc(NC(=O)C2(N3C(=O)CC3c3ccco3)CCCCC2)cc1 (configuration not stated) | nt | -3
CCOc1ccc(C(=O)NCC(=O)O)cc1 | 1.5 | 1
O=C(CN1C(=O)CCC1=O)Nc1nnc(-c2cccnc2)o1 | nt | 3
COc1cc(/C=C2/SC(=O)NC2=O)cc(Br)c1O | nt | -19
CCC(c1nnc(SCC(=O)NCCc2ccc(Cl)cc2Cl)o1)N(C)C (configuration not stated) | nt | 44*
CC(C)[C@H](NC(=O)C1CCCCC1)c1nc2ccccc2[nH]1 | nt | -7
CCN1CCc2c(OC(C)C)cccc2C1=O | nt | 6
CCc1ccccc1Nc1ccc(C(=O)O)cn1 | -1.6 | 5
Cc1ccccc1CN1CCN(CC(=O)NCc2cccs2)C1=O | nt | 11
Cc1onc(-c2ccccc2)c1C(=O)n1nnc2ccccc21 | 3.0 | 2
O=S(=O)(Nc1ncccn1)c1ccc(NC(=S)NCCN2CCOCC2)cc1 | nt | 3
CC(C)(C)S(=O)c1cccs1 (configuration not stated) | 0.8 | -1
Cc1cc(-c2ccccc2)nc2oc(C(=O)c3ccc(Cl)cc3)c(N)c12 | -1.4 | nt
Later entries.
SMILES | MgrA DNA FP | S aureus helic
CN(C)c1ccc(C(=O)Cc2ccccc2Cl)cc1 | -0.7 | nt
O=C(CSc1nnc(Cc2cccs2)n1C1CCCCC1)N1CCCc2ccccc21 | nt | -1
CN(CCOc1ccc(Br)cc1)C(=O)c1n[nH]c2ccccc12 | nt | 16
Cn1c(=NC(=O)c2c(F)cccc2F)sc2cc(S(C)(=O)=O)ccc21 | nt | 15

Assay outcomes as filed in PubChem.

These rows are one share of the data; rates above refer to the full screens.
